# Screening data as filed in PubChem BioAssay.
# DUX4 inh: DUX4-mediated transcription inhibition; 37,000 compounds, 0.8% hits; 293T-iDUX4 ZSCAN4-Gaussia luciferase reporter, 24 h; stronger effect = lower value; activity change, negative = inhibition, % (no concentration beside the values);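 active = -10% or lower and over 25 points stronger than a control reporter; inconclusive = -10% or lower with a smaller gap; inactive = above -10%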;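 also: 0% = median of neutral control wells and -100% = median of positive control wells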
# DUX4 inh difference: second read-out of DUX4 inh, no call of its own (marks repeat the call); Gaussia minus Italica difference, %; measured here: selective DUX4 reporter inhibition;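 worked out from the two reporters; negative = selective loss of the DUX4 reporter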
# DUX4 inh control: second read-out of DUX4 inh, no call of its own (marks repeat the call); activity change, negative = inhibition, %; measured here: Italica tet-on control reporter;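 0 = neutral control and -100 = positive control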
# * hit, by the source's call; ? = inconclusive; nt = not tested or not shown. Not all compounds are listed, so the mix of outcomes need not match the whole.
DUX4 inh	Molecule	DUX4 inh difference	DUX4 inh control
?	Fc1ccc(-c2ccc(C3[C@@H]4CN(Cc5nccs5)C[C@H]3N4)cc2)cc1 (some centres not stated)	-23	18
3	CO[C@H]1CN(C)C(=O)c2ccc(NC(=O)Nc3ccccc3F)cc2OC[C@@H](C)N(C(C)=O)C[C@@H]1C	-5	8.0
3	COc1ccc(NC(=O)N2CCCCN3[C@H](CO)[C@@H](c4ccc(-c5ccccc5F)cc4)[C@@H]3C2)cc1	-5	7.8
1	COc1ccc(NC(=O)Nc2ccc3c(c2)[C@H]2C[C@@H](CC(=O)N[C@@H](C)c4ccccc4)O[C@H](CO)[C@H]2O3)cc1	1	0.0
-3	C[C@@H]1CN([C@@H](C)CO)C(=O)CCCn2cc(nn2)CO[C@H]1CN(C)Cc1ccc(Cl)c(Cl)c1	2	-5.1
-2	Cc1ccc(S(=O)(=O)N(C)C[C@H]2OCCCC[C@H](C)Oc3ccc(NC(=O)c4ccncc4)cc3C(=O)N([C@H](C)CO)C[C@H]2C)cc1	-6	4.4
4	CCCNC[C@H]1[C@@H](c2ccc(-c3cccc(C#N)c3)cc2)[C@@H](CO)N1C(C)=O	1	3.0
4	Cc1noc(C)c1NC(=O)N[C@H]1CC[C@H](CC(=O)N2CCN(C)CC2)O[C@@H]1CO	3	1.2
?	O=C(C1CCCCC1)N1CC2(C1)[C@H](c1ccccc1)[C@@H](CO)N2Cc1ccccc1F	nt	nt
?	COc1cccc(S(=O)(=O)Nc2ccc3c(c2)[C@@H]2C[C@@H](CC(=O)NCc4ccccc4F)O[C@@H](CO)[C@@H]2O3)c1	nt	nt
?	OC[C@H]1Nc2ccc(-c3ccccc3)cc2[C@@H]2[C@H]1CCN2Cc1ccccc1F	nt	nt
8	COc1cccc(-c2ccc([C@H]3[C@@H](CO)N4CCCCN(Cc5cncnc5)C[C@H]34)cc2)c1	-9	17
1	C[C@@H]1CN([C@H](C)CO)S(=O)(=O)c2ccc(-c3ccc(C#N)cc3)cc2O[C@H]1CN(C)Cc1cccc(F)c1	-3	4.8
6	CCCNC(=O)N1CCC2(CC1)CN(C(=O)c1cccnc1)[C@H](CO)c1[nH]c3cc(OC)ccc3c12	1	4.7
2	COc1ccc(S(=O)(=O)N2CC[C@@H]3[C@@H](CO)Nc4ccc(C#Cc5cccnc5)cc4[C@@H]32)cc1	10	-8.0
3	CCNC(=O)[C@H]1[C@H](CO)[C@H]2Cn3c(ccc(/C=C/c4ccccc4)c3=O)[C@@H]1N2	5	-1.8
-2	COc1ccc(S(=O)(=O)Nc2ccc3c(c2)C(=O)N([C@H](C)CO)C[C@@H](C)[C@H](CN(C)S(=O)(=O)c2ccc(Cl)cc2)OCCCC[C@@H](C)O3)cc1	-2	-0.6
2	C[C@@H]1CCCCO[C@@H](CN(C)C(=O)Nc2ccc(C(F)(F)F)cc2)[C@@H](C)CN([C@H](C)CO)C(=O)c2cc(N(C)C)ccc2O1	-1	3.0
?	Cc1ccc(S(=O)(=O)N(C)C[C@@H]2OCCCC[C@H](C)Oc3ccc(NC(=O)C4CCCCC4)cc3C(=O)N([C@@H](C)CO)C[C@@H]2C)cc1	nt	nt
4	C[C@H]1CN([C@@H](C)CO)C(=O)CCCn2nncc2CO[C@H]1CN(C)C(=O)c1ccc2ccn(C)c2c1	4	0.5
-10	COc1ccc(-c2ccc3c(c2)[C@@H]2[C@@H](CCN2S(=O)(=O)c2ccccc2C)[C@H](CO)N3)cc1	28	-38
-1	C[C@H](CO)N1C[C@H](C)[C@@H](CN(C)Cc2ccc3c(c2)OCCN3C)OCc2ccccc2-c2c(n(C)c3ccccc23)C1=O	-8	7.7
-7	CC(C)NC(=O)N(C)C[C@@H]1Oc2ncc(-c3ccccc3F)cc2C(=O)N([C@H](C)CO)C[C@H]1C	-10	3.4
6	C[C@H](CO)N1C[C@H](C)[C@H](CN(C)C(=O)CCCN(C)C)OCCCC[C@H](C)Oc2ccc(NC(=O)Nc3cccc4ccccc34)cc2C1=O	3	3.1
15	COc1ccc2c3c([nH]c2c1)[C@@H](CO)N(C(=O)C1CCOCC1)CC31CCN(Cc2nccs2)CC1	-4	19

# Filtered by structure: the compounds so far with a Cl atom.
DUX4 inh	Molecule	DUX4 inh difference	DUX4 inh control
-3	C[C@@H]1CN([C@@H](C)CO)C(=O)CCCn2cc(nn2)CO[C@H]1CN(C)Cc1ccc(Cl)c(Cl)c1	2	-5.1
-2	COc1ccc(S(=O)(=O)Nc2ccc3c(c2)C(=O)N([C@H](C)CO)C[C@@H](C)[C@H](CN(C)S(=O)(=O)c2ccc(Cl)cc2)OCCCC[C@@H](C)O3)cc1	-2	-0.6

# The main list resumes, starting 5 compounds before the break.
DUX4 inh	Molecule	DUX4 inh difference	DUX4 inh control
-10	COc1ccc(-c2ccc3c(c2)[C@@H]2[C@@H](CCN2S(=O)(=O)c2ccccc2C)[C@H](CO)N3)cc1	28	-38
-1	C[C@H](CO)N1C[C@H](C)[C@@H](CN(C)Cc2ccc3c(c2)OCCN3C)OCc2ccccc2-c2c(n(C)c3ccccc23)C1=O	-8	7.7
-7	CC(C)NC(=O)N(C)C[C@@H]1Oc2ncc(-c3ccccc3F)cc2C(=O)N([C@H](C)CO)C[C@H]1C	-10	3.4
6	C[C@H](CO)N1C[C@H](C)[C@H](CN(C)C(=O)CCCN(C)C)OCCCC[C@H](C)Oc2ccc(NC(=O)Nc3cccc4ccccc34)cc2C1=O	3	3.1
15	COc1ccc2c3c([nH]c2c1)[C@@H](CO)N(C(=O)C1CCOCC1)CC31CCN(Cc2nccs2)CC1	-4	19
-10	CCCC(=O)Nc1ccc2c(c1)OC[C@H](C)N(CCc1ccccc1)C[C@@H](C)[C@H](OC)CN(C)C2=O	-10	-0.2
-3	O=C(N[C@H]1CC[C@@H](CCNS(=O)(=O)c2ccc(F)cc2)O[C@H]1CO)C1CCC1	-5	2.7
-6	CS(=O)(=O)N1CC2(C1)[C@H](c1ccccc1)[C@H](CO)N2CC1CC1	-13	6.8
4	O=C(N[C@@H]1CC[C@@H](CCn2cc(-c3ccccn3)nn2)O[C@@H]1CO)c1ccncc1	0	3.4
6	O=C(NC1CCC1)[C@@H]1[C@@H](CO)[C@@H]2Cn3c(ccc(C4=CCCC4)c3=O)[C@@H]2N1C(=O)C1CCC1	0	6.0
11	COCC(=O)N1[C@H](CO)[C@H](c2ccccc2-c2cccc(F)c2)[C@@H]1C#N	2	8.8
5	CNC(=O)C[C@H]1CC[C@H]2[C@@H](COC[C@@H](O)CN2Cc2ccc(Cl)c(Cl)c2)O1	9	-4.6
0	C[C@@H]1CN([C@H](C)CO)C(=O)c2cc(-c3cccc(F)c3)cnc2O[C@H]1CN(C)C(=O)c1cnccn1	0	0.0
-9	O=C(c1ccccn1)N1CC[C@H]2[C@H](CO)Nc3ccc(C#Cc4ccccc4)cc3[C@H]21	-9	0.0
-6	COc1ccc2c3c(n(C)c2c1)[C@H](CO)N(Cc1ccncc1)CC31CN(C(=O)Nc2cccc(F)c2)C1	-7	0.5
-4	C[C@H]1CN([C@@H](C)CO)C(=O)c2ccccc2-c2ccccc2CO[C@H]1CN(C)C(=O)Nc1ccnc(N2CCOCC2)c1	-12	8.6
1	COCC(=O)Nc1ccc2c(c1)C(=O)N(C)C[C@@H](OC)[C@@H](C)CN(C(C)=O)[C@H](C)CO2	5	-3.1
-2	C[C@@H]1CN([C@@H](C)CO)C(=O)Cc2cc(NC(=O)CCC(F)(F)F)ccc2O[C@H]1CN(C)CC1CC1	-2	-0.6
4	C[C@@H]1CCCCO[C@H](CN(C)C(=O)Nc2ccc3c(c2)OCO3)[C@H](C)CN([C@@H](C)CO)C(=O)c2cc(NC(=O)C3CCCCC3)ccc2O1	4	0.3
2	CC(=O)N(Cc1cccc(F)c1)C[C@@H]1[C@@H](c2ccccc2)[C@@H](CO)N1C(C)=O	3	-1.2
12	O=C(Nc1ccc(F)cc1)N1CCCCN2[C@@H](CO)[C@@H](c3ccc(C#Cc4ccccn4)cc3)[C@@H]2C1	12	-0.2
-1	CN1C(=O)c2cc(NC(=O)c3ccc(Cl)cc3)ccc2OC[C@H]2O[C@H](CC(=O)NCc3cccc(F)c3)CC[C@@H]21	0	-1.0
3	O=C(CC(F)(F)F)N1C[C@@H]2[C@H](c3ccccc31)[C@H](CO)N2C(=O)Cc1ccccc1	-3	5.6
-3	CC(C)NC(=O)N(C)C[C@@H]1Oc2ccc(NS(=O)(=O)c3ccc(F)cc3)cc2CC(=O)N([C@@H](C)CO)C[C@H]1C	0	-2.9
2	C[C@H](CO)N1C[C@H](C)[C@@H](CN(C)S(=O)(=O)c2ccc(F)cc2)OCCCC[C@H](C)Oc2ccc(N(C)C)cc2C1=O	1	0.9
4	C[C@H]1CCCCO[C@@H](CN(C)S(=O)(=O)c2ccc(F)cc2)[C@@H](C)CN([C@@H](C)CO)C(=O)c2cc(N(C)C)ccc2O1	-1	4.7
-1	CNC[C@@H]1OCCCC[C@H](C)Oc2ccc(NC(=O)Nc3c(C)noc3C)cc2C(=O)N([C@H](C)CO)C[C@H]1C	-4	2.8
-9	Cc1ccc(S(=O)(=O)N2C[C@H](O)COC[C@H]3O[C@H](CC(=O)NCc4ccc5c(c4)OCO5)CC[C@@H]32)cc1	-8	-0.3
10	O=C(C[C@H]1CC[C@H]2[C@@H](COC[C@@H](O)CN2Cc2ccncc2)O1)NCc1ccccc1Cl	6	4.1
?	CN1c2ccc(C3=CCCCC3)cc2[C@H]2[C@H](CCN2C(=O)C2CCCCC2)[C@H]1CO	nt	nt

# Going on with the list.
DUX4 inh	Molecule	DUX4 inh difference	DUX4 inh control
-39*	Cc1ccccc1S(=O)(=O)N1CCCCN2[C@H](CO)[C@@H](c3ccc(-c4cccc(F)c4)cc3)[C@H]2C1	-45*	5.5*
8	CS(=O)(=O)N1[C@@H](C#N)[C@H](c2ccccc2)[C@@H]1CO	20	-12
3	C[C@H]1CCCCO[C@H](CN(C)C(=O)C2CCCCC2)[C@@H](C)CN([C@@H](C)CO)C(=O)c2cc(N(C)C)ccc2O1	0	3.2
-2	C/C=C/c1ccc([C@H]2[C@@H](C#N)N(C(=O)NC3CCCC3)[C@H]2CO)cc1	-2	0.2
6	C[C@H]1CN([C@@H](C)CO)C(=O)c2cc(-c3ccc(C#N)cc3)cnc2O[C@@H]1CN(C)C(=O)Nc1ccccc1	5	1.7
0	O=C(C[C@H]1C=C[C@H](NC(=O)NC2CCCCC2)[C@@H](CO)O1)NCc1ccc(F)cc1	-2	1.9
-3	CO[C@@H]1CN(C)C(=O)c2ccc(NC(=O)c3cccc(F)c3)cc2OC[C@H](C)N(C(C)=O)C[C@@H]1C	2	-4.8
2	CN1C(=O)c2cc(NS(=O)(=O)c3ccc(Cl)cc3)ccc2OC[C@H]2O[C@@H](CC(=O)O)CC[C@H]21	3	-0.5
2	N[C@H]1CC[C@H](CCn2cc(-c3ccccn3)nn2)O[C@@H]1CO	6	-4.0
8	CCCC(=O)N1C[C@@H]2[C@H](c3ccccc31)[C@@H](CO)N2C(=O)CC1CC1	4	4.2
?	CCCNC(=O)N1CC2(C1)[C@H](c1ccccc1)[C@@H](CO)N2Cc1cccc(Cl)c1	nt	nt
-1	C[C@@H]1CN([C@H](C)CO)C(=O)Cc2cc(NS(=O)(=O)c3ccc(Cl)cc3)ccc2O[C@@H]1CN(C)C(=O)Nc1ccc(C(F)(F)F)cc1	-1	0.8
-3	CCCNC(=O)[C@H]1[C@H](CO)[C@H]2Cn3c(ccc(-c4ccccc4OC)c3=O)[C@@H]1N2C(=O)NCCC	-4	1.0
0	O=C(C[C@H]1C[C@H]2c3cc(NC(=O)NC4CCCC4)ccc3O[C@H]2[C@H](CO)O1)NCC1CC1	-1	0.3
-3	COc1ccc2c3c(n(C)c2c1)[C@@H](CO)N(C)CC31CCN(S(=O)(=O)c2cccs2)CC1	-3	-0.1
-4	COc1ccc(S(=O)(=O)N(C)C[C@@H]2Oc3ccc(NC(=O)CCN4CCOCC4)cc3CC(=O)N([C@@H](C)CO)C[C@@H]2C)cc1	-9	5.4
11	COc1ccc2c3c([nH]c2c1)[C@@H](CO)N(C(=O)c1ccccn1)CC31CN(C(=O)C2CCC2)C1	1	10
7	CNC[C@@H]1Oc2c(NC(=O)NC3CCCCC3)cccc2C(=O)N([C@@H](C)CO)C[C@@H]1C	4	3.5
1	CN1C[C@@H]2[C@H](c3ccccc31)[C@H](CO)N2C(=O)Nc1ccccc1Cl	-1	1.2
0	CCC(=O)N1[C@H](CO)[C@@H](c2ccc(-c3cccc(F)c3)cc2)[C@@H]1CN(C)C(C)=O	1	-0.9
1	C[C@@H](NC(=O)[C@H]1N[C@H]2c3ccc(-c4cccnc4)c(=O)n3C[C@H]2[C@@H]1CO)c1ccccc1	1	-0.2
?	Cc1ccc(S(=O)(=O)N2CC[C@@H]3[C@H]2c2cc(-c4ccc(C#N)cc4)ccc2N(C)[C@H]3CO)cc1	nt	nt
5	O=C(C[C@@H]1CC[C@@H](NC(=O)C2CCOCC2)[C@H](CO)O1)NCC1CCCCC1	2	3.0
2	C[C@@H]1CCCCO[C@H](CN(C)S(C)(=O)=O)[C@@H](C)CN([C@@H](C)CO)C(=O)c2cc(N(C)C)ccc2O1	-3	5.6

# 3 of the entries above in order of their number in DUX4 inh, highest first:
DUX4 inh	Molecule	DUX4 inh difference	DUX4 inh control
2	N[C@H]1CC[C@H](CCn2cc(-c3ccccn3)nn2)O[C@@H]1CO	6	-4.0
1	CN1C[C@@H]2[C@H](c3ccccc31)[C@H](CO)N2C(=O)Nc1ccccc1Cl	-1	1.2
-3	COc1ccc2c3c(n(C)c2c1)[C@@H](CO)N(C)CC31CCN(S(=O)(=O)c2cccs2)CC1	-3	-0.1
